HIV Env fusion = inhibitors of HIV Env-mediated cell fusion | HeLa-JRFL Env/CEM21 cell fusion, luciferase | inhibition, % at 12.3 µM | hit rate 1.1% among 360,000 | AID 651610;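 active = mean replicate inhibition score of at least 50 and every replicate individually at or above 50; inconclusive = only one of the two criteria met; inactive = mean below 50 and not all replicates reaching 50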;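 also: 0% = plate neutral controls and 100% = maraviroc near 300 nM; one replicate is shown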
eIF4H FP inh = inhibitors of RNA binding by human eIF4H | Q15056 | eIF4H fluorescence polarization binding assay | inhibition, % at 35 µM | hit rate 0.94% among 290,000 | AID 2012;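 active = 50% or more with normal probe brightness, or confirmed in later tests; inconclusive = above 50% with abnormal brightness, or retests that disagree; inactive = below 50% or failed in later tests; about a fifth of its hits are not listed in these tables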;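 also: calls also rest on retests at 20 µM and on dose response follow-up; 0% = protein and probe with vehicle and 100% = probe without protein; strong numbers were not always called active; many hits fall short of the cut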
PABP FP inh = blocks human PABP binding to poly(A) RNA; fluorescence polarization; inhibition, % at 35 µM; AID 2014; hit rate 1% among 290,000; P11940;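 active = 50% or more with normal probe brightness, or confirmed in later tests; inconclusive = above 50% with abnormal brightness, or retests that disagree; inactive = below 50% or failed in later tests; about a fifth of its hits are not listed in these tables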;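 also: calls also rest on retests at 20 µM and on dose response follow-up; controls were probe without protein and protein plus probe with vehicle; some compounds called inactive have numbers as strong as hits; many hits fall short of the cut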
Target sequence (P11940 whole entry, looked up): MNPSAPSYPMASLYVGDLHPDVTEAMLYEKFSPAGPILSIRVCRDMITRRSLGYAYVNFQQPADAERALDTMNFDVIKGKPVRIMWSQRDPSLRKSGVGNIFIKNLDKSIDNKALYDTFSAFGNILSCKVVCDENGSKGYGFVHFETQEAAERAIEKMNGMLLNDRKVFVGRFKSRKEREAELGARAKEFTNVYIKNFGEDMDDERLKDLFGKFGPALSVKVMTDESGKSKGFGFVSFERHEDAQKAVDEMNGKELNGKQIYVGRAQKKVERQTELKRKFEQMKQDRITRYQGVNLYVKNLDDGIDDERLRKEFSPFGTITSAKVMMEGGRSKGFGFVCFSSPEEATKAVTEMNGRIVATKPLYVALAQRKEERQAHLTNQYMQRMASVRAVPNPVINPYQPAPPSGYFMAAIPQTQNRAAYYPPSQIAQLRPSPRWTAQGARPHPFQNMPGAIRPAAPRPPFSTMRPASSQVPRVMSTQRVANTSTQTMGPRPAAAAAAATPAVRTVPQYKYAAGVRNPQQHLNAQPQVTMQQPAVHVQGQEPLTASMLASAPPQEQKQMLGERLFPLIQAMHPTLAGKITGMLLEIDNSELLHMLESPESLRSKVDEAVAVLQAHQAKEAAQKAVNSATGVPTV
MT1-MMP act inh = inhibitors of human MT1-MMP activation; hit rate 0.061% among 360,000; P50281; HT1080 RFP-PRO-GFP cells, GFP/RFP ratio fluorescence, overnight; percent of plate control window, DMSO zero; GFP/RFP ratio change, % at 20 µM;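 active = GFP/RFP ratio change of at least 30% with cell ATP level not reduced by more than half and red fluorescence within 50% of control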; also: strong numbers were not always called active
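Read-out: GFP/RFP fluorescence ratio; Test system: RFP-PRO-GFP reporter HT1080 cells; Compound dosing: single-point 20 µM compound, 1% DMSO; Times: overnight compound exposure at 37 °C.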
CSC inhib = blocks cancer stem cells | AID 2717 | cancer stem cell-like cells viability, luminescence | inhibition, % at 7.5 µM | hit rate 1.1% among 300,000;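 active = mean at 75% or more and at least half the replicates too; inconclusive = mean and replicates disagree; tested in HMLE shEcad cells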;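 also: 0% = median of negative and 100% = median of positive control wells; the first replicate is given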
Rce1 inhib = blocks yeast Ras-converting enzyme. hit rate 0.27% among 290,000. calls only. yeast membranes, quenched prenylated peptide cleavage fluorescence;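 active = fall in fluorescence gain of 50% or more versus controls, with final raw signal at or below 3038400; inconclusive = same 50% fall but final raw signal above 3038400; inactive = fall in fluorescence gain under 50%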;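 also: plate controls were neutral control wells for no effect and wells lacking membranes for full effect; tested at 10 µM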
Target sequence (Q03530 whole entry, looked up): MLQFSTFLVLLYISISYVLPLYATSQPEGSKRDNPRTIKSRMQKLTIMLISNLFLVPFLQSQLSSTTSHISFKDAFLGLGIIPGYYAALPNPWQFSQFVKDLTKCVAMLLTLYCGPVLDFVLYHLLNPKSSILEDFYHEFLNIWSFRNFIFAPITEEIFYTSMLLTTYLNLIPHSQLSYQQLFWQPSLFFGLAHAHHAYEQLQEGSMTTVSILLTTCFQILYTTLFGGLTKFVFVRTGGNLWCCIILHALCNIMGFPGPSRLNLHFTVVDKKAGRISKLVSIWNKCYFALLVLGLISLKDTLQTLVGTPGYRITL
Yeast UUG start = alters start codon recognition fidelity in yeast; S. cerevisiae UUG-firefly luciferase reporter, luminescence/redox ratio; activity score, % at 18.7 µM; hit rate 0.13% among 350,000;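 active = replicate mean at a twofold rise or more, about +100% in these data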;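 also: firefly luciferase made from a UUG start codon reports start codon fidelity; reporter light over untreated wells divided by growth signal over untreated wells; some hits fall short of that in this replicate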
MT1-MMP act inh RFP = recorded beside MT1-MMP act inh, whose call it bears; RFP signal change, %; measured here: RFP expression control read;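 0 = vehicle wells; hits needed this value within 50% of zero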
The depositor's hits bear a star; i = inactive; ? = inconclusive; · = no result given; & = joins results of further samples; [ ] = another dose, or the depositor's remark.

SMILES	HIV Env fusion	eIF4H FP inh	PABP FP inh	MT1-MMP act inh	MT1-MMP act inh RFP	CSC inhib	Rce1 inhib	Yeast UUG start
Cc1ccc2c(c1)C(c1ccccc1)N(C(=O)c1cccc([N+](=O)[O-])c1)CC(=O)N2 (stereo unspecified)	18	3	-4	-5	-2	-6	i	·
CCN(Cc1cccc(OC)c1)CC1CCCN(CCc2cccc(OC)c2)C1 (stereo unspecified)	15	-5	6	4	1	36	i	0
COCCCNc1nc2ccccc2nc1NS(=O)(=O)c1cccc(Cl)c1	-1	43	22	-4	1	-6	i	-14
Cc1csc(NC(=O)c2cc(C)on2)n1	-7	·	·	-1	0	-1	·	-22
Cn1c(=O)c2c(nc(Sc3ncnn3CC(=O)N3CCOCC3)n2C)n(C)c1=O	3	-9	-5	-4	1	-3	i	-15
Cc1cc(-c2ccco2)n(CC(=O)NCCN(C)C)n1	9	0	-6	-1	3	-18	i	-21
CCOC(=O)C1CCCN(C(=O)CCNC(=O)Cn2ccc3ccccc3c2=O)C1 (stereo unspecified)	-6	5	3	2	4	-5	i	·
COC(=O)[C@@]12CCCCN1[C@H](c1ccc(SC3CCCCC3)cc1)[C@@H]1C(=O)N(C)C(=O)[C@@H]12	-5	·	·	-5	-17	-5	i	1
CC(C)NOC(=O)c1ccc(Cl)cc1	-4	-1	36	-1	0	5	i	·
O=C(CN(Cc1ccccc1)C1=NCCS1)c1ccc(Cl)cc1	14	-11	-10	-3	-2	-4	·	·
COc1cc(/C=N/Nc2nc(=O)[nH]nc2C)cc([N+](=O)[O-])c1O	-5	-2	22	11	3	-15	i	·
O=S(=O)(c1ccc2ccccc2c1)N1CCN(C(=S)Nc2ccc(F)c(Cl)c2)CC1	42	-8	-7	15	-7	31	i	-5
C[C@@H]1CN([C@@H](C)CO)C(=O)c2cc(NC(=O)Nc3cccc4ccccc34)ccc2O[C@@H](C)CCCCO[C@H]1CN(C)C(=O)c1ccccc1	61*[16.7 µM]	·	·	2	-8	·	·	-5&-20
CCN(CC(=O)Nc1ccccc1C(F)(F)F)C(=O)c1ccccc1Cc1ccccc1	9	·	·	6	-1	-5	i	-6
Cc1cccc(NC(=O)c2ccc(N(C)C3CCCCC3)c([N+](=O)[O-])c2)n1	-2	0	2	-2	-15	1	i	-17
COc1ccccc1N1CCN(c2ncnc3sc(C)c(-c4ccccc4)c23)CC1	·	-4	-2	-4	-7	·	i	-12
Cc1cccc(NC(=O)CSc2nnc(NC(=O)CN3CCCCC3)s2)c1	-3	4	?	·	·	-10	i	·
Cn1cccc1/C=C1\SC(=S)N(NC(=O)c2ccc(Cl)cc2)C1=O	·	?	0	0	4	13	·	·
Cc1ccc2c(=O)[nH]c(Cc3ccccc3C(=O)O)nc2c1	3	-6	12	2	3	-1	i	-8
Cc1nc2oc3c(NCC4CCCO4)ncnc3c2c2c1COC(C)(C)C2 (stereo unspecified)	-84	2	-2	16	8	4	i	-11

Arranged by the number under MT1-MMP act inh RFP (lowest first): some entries from above.
molecule,HIV Env fusion,MT1-MMP act inh,MT1-MMP act inh RFP,Rce1 inhib,Yeast UUG start
C[C@@H]1CN([C@@H](C)CO)C(=O)c2cc(NC(=O)Nc3cccc4ccccc34)ccc2O[C@@H](C)CCCCO[C@H]1CN(C)C(=O)c1ccccc1,61*[16.7 µM],2,-8,·,-5&-20
O=C(CN(Cc1ccccc1)C1=NCCS1)c1ccc(Cl)cc1,14,-3,-2,·,·
Cn1cccc1/C=C1\SC(=S)N(NC(=O)c2ccc(Cl)cc2)C1=O,·,0,4,·,·

(continued)
SMILES	HIV Env fusion	eIF4H FP inh	PABP FP inh	MT1-MMP act inh	MT1-MMP act inh RFP	CSC inhib	Rce1 inhib	Yeast UUG start
CC(C)(C)C1CCC(=NNc2ccc(S(N)(=O)=O)cc2[N+](=O)[O-])CC1 (stereo unspecified)	0	-3	-1	1	1	-18	i	·
CC(Oc1ccc(Br)cc1)C(=O)NCC(C)(C)N1CCOCC1 (stereo unspecified)	-34	·	·	4	-4	13	i	-8
CCCCN(CCCC)CCCNC(=O)Cn1cc2c(n1)-c1c(oc(C(=O)N3CCCC3)c1C)CC2	5	·	·	-1	3	-5	i	-10
N#CC1=C(N)Oc2cc3c(cc2C1c1ccc(Cl)cc1)OCO3 (stereo unspecified)	·	5	13	-19	-6	44	i	-17
CN(C)S(=O)(=O)c1cccc(C(=O)N=C2N=C3C=CC(Cl)=CN3Cc3ccccc32)c1	-82	6	0	-3	-6	1	·	-20
Cc1ccc(S(=O)(=O)N2[C@@H](c3ccc(F)cc3)C(C(=O)O)=CC[C@H]2c2ccc(Cl)cc2)cc1	4	·	·	-5	2	3	·	2
N#C/C(=C/c1cccs1)c1nc2ccccc2[nH]1	-92	5	-4	-1	-4	24	i	·
CCOc1ccc2nc(NC(=O)C3=NNC(=O)CC3)sc2c1	-14	-8	-2	6	1	-6	i	-9
CCNC(=S)Nc1cc(OCC)c(N2CCOCC2)cc1OCC	-2	-3	0	0	-1	-10	i	·
CCOC(=O)c1c(NC(=O)COC(=O)c2ccc(C)s2)sc2c1CC(C)(C)NC2(C)C	-1	·	·	-3	1	4	i	-4
Nc1nc(-c2ccco2)nn1C(=O)c1ccccc1	·	-2	10	1	-1	7	i	-30
CC1CCCCN1CCCNC(=O)c1ccc2c(=O)n(CCc3ccccc3)c(=O)[nH]c2c1 (stereo unspecified)	-99	-4	0	-2	2	-2	i	6
O=C(COc1ccc(Cl)cc1)NNC(=O)c1ccccc1C(=O)O	-5	-9	14	-2	-3	-7	i	-2
CCN(CC)S(=O)(=O)c1ccc(Cl)c(NC(=O)COC(=O)c2ccc([N+](=O)[O-])o2)c1	2	1	9	5	3	-5	i	19
COc1cccc(NC(=O)C(c2ccccc2)N2CCN(c3ccccn3)CC2)c1 (stereo unspecified)	-5	-6	-10	-6	-6	-8	i	·
Cc1oc2cc3oc(=O)c(CCC(=O)NCCCN4CCOCC4)c(C)c3cc2c1C	·	35	15	11	1	-4	i	-4
OCCNC(=S)Nc1ccc2c(c1)OCCO2	-19	-4	-1	5	3	-5	i	-16
CCN(CC)C(=O)Cn1cc(S(=O)(=O)CC(=O)NCc2ccc(C)cc2)c2ccccc21	-29	-3	-1	-2	3	-16	i	-18
CC(=O)c1ccc(NC(=O)CN2CCN(S(=O)(=O)c3ccc4c(c3)OCCO4)CC2)cc1	0	·	·	-1	0	·	·	2
CC(=O)C1=C(O)C(=O)N(c2ccccn2)C1c1ccccc1[N+](=O)[O-] (stereo unspecified)	6	1	-7	-1	0	-4	i	-12
Cn1cnc2c(cnn2C)c1=N	16	·	·	-1	6	·	·	-19
Cc1ccc(NC(=S)NC2CCCC2)c(C)c1	-22	-9	-8	2	1	-7	i	-27
O=C(CCC1CCCCC1)Nc1c[nH]c(=O)[nH]c1=O	·	0	4	-6	3	·	i	-20
O=C(COC(=O)CNC(=O)c1ccc(Br)o1)Nc1ccccc1OC(F)F	21	0	25	-3	1	-4	i	·
Cc1oc2c(c1C(=O)O)C(=O)c1ccccc1C2=O	-12	6	7	7	-1	2	i	-23
Cc1ccc2nc(NC(=O)COC(=O)c3cccnc3)sc2c1	-22	·	·	-3	-1	15	·	-13
CCCN(CC(=O)Nc1ccccc1C)C(=O)/C=C/c1ccc(OCC)c(OC)c1	0	·	·	6	-1	·	·	-6
Cc1occc1-c1nnc(SCC(=O)c2ccc(Cl)cc2)n1C	-27	-1	-3	1	0	9	·	-25
OCCCNc1ncnc2sc3c(c12)CCN(Cc1ccccc1)C3	-8	4	4	-21	-6	-17	?	10
Cc1c(C=O)c2cc(OCc3ccccc3)ccc2n1C	3	-15	0	0	-2	6	i	-5
N#Cc1nc(COc2cccc(Cl)c2)oc1NCc1ccncc1	·	3	9	-4	-9	-7	i	-13
Cc1ccc(CNC(=O)COC(=O)C2CCC2)cc1	16	·	·	1	2	·	·	-29
Cc1ccc(NC2CCCN(C(=O)c3cnc4ccccn4c3=O)C2)cc1C (stereo unspecified)	-3	-8	3	3	4	-9	i	-11
O=C(COc1ccccc1)N/N=C/c1cc2c(cc1[N+](=O)[O-])OCO2	-33	37	8	5	-4	-9	i	-8
COc1ccc(CN2CCN(Cc3cccc(Oc4ccccc4)c3)CC2)c(OC)c1OC	24	16	19	2	-1	44	i	10
CCOc1ccc(NC(C)C(=O)N/N=C/c2cccs2)cc1 (stereo unspecified)	-68	3	-3	2	5	2	i	·
CC(C)CCC(C)NC(=O)C1CCN(S(=O)(=O)/C=C/c2ccccc2)CC1 (stereo unspecified)	3	-19	-3	-2	-1	-12	i	-20
CCCCS/C(N)=N/N=C/c1ccccc1O	-88	-3	-1	9	5	5	i	·
O=C(Nc1cc2c(cc1C(=O)O)OCCCO2)c1ccc(C(F)(F)F)cc1	-12	-8	8	1	0	11	i	-4
COc1ccc(N(CC(O)CN2C(=O)NC(C)(C)C2=O)S(=O)(=O)c2ccc(C)cc2)cc1 (stereo unspecified)	1	3	8	-1	4	-2	i	-2
CCOc1ccc(NC(=O)c2cc(OC)nc3ccccc23)cc1	-333	2	3	7	-2	51	i	·

Compounds listed so far containing a Cl atom:
SMILES	HIV Env fusion	eIF4H FP inh	PABP FP inh	MT1-MMP act inh	MT1-MMP act inh RFP	CSC inhib	Rce1 inhib	Yeast UUG start
COCCCNc1nc2ccccc2nc1NS(=O)(=O)c1cccc(Cl)c1	-1	43	22	-4	1	-6	i	-14
CC(C)NOC(=O)c1ccc(Cl)cc1	-4	-1	36	-1	0	5	i	·
O=C(CN(Cc1ccccc1)C1=NCCS1)c1ccc(Cl)cc1	14	-11	-10	-3	-2	-4	·	·
O=S(=O)(c1ccc2ccccc2c1)N1CCN(C(=S)Nc2ccc(F)c(Cl)c2)CC1	42	-8	-7	15	-7	31	i	-5
Cn1cccc1/C=C1\SC(=S)N(NC(=O)c2ccc(Cl)cc2)C1=O	·	?	0	0	4	13	·	·
N#CC1=C(N)Oc2cc3c(cc2C1c1ccc(Cl)cc1)OCO3 (stereo unspecified)	·	5	13	-19	-6	44	i	-17
CN(C)S(=O)(=O)c1cccc(C(=O)N=C2N=C3C=CC(Cl)=CN3Cc3ccccc32)c1	-82	6	0	-3	-6	1	·	-20
Cc1ccc(S(=O)(=O)N2[C@@H](c3ccc(F)cc3)C(C(=O)O)=CC[C@H]2c2ccc(Cl)cc2)cc1	4	·	·	-5	2	3	·	2
O=C(COc1ccc(Cl)cc1)NNC(=O)c1ccccc1C(=O)O	-5	-9	14	-2	-3	-7	i	-2
CCN(CC)S(=O)(=O)c1ccc(Cl)c(NC(=O)COC(=O)c2ccc([N+](=O)[O-])o2)c1	2	1	9	5	3	-5	i	19
Cc1occc1-c1nnc(SCC(=O)c2ccc(Cl)cc2)n1C	-27	-1	-3	1	0	9	·	-25
N#Cc1nc(COc2cccc(Cl)c2)oc1NCc1ccncc1	·	3	9	-4	-9	-7	i	-13

From PubChem BioAssay
